High-throughput results (PubChem BioAssay)
TRPML1 ag – agonists of human TRPML1 channel. AID 624414. actives 0.12% (n = 410,000). TRPML1-expressing cells, Ca2+ dye fluorescence, FDSS; host cell line not named in the record; reference of the full effect not given here. activation, % (no concentration beside the values). Q9GZU1; in the data active = activation above about 50%; inconclusive = about 30% to 50%; inactive = below about 30%; also: 0% is about no effect; the text of the record puts the active cut at 80%
Target sequence (Q9GZU1 whole entry, looked up): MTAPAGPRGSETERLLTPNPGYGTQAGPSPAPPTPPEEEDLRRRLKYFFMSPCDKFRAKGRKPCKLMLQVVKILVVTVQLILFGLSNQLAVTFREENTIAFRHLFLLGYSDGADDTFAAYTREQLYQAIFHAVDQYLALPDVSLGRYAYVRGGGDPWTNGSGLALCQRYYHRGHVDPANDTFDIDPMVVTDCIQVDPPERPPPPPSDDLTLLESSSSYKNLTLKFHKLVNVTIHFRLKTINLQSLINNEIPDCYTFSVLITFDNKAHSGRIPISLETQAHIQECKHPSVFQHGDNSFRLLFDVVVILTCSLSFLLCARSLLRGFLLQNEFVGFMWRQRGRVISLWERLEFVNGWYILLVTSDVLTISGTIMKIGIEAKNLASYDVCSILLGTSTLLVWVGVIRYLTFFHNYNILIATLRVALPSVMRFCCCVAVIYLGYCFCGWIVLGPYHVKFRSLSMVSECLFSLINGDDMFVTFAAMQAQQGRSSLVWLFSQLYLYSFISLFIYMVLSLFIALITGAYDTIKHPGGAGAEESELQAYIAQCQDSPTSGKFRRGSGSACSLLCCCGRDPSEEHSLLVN
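Tetracycline-induced TRPML1-DL cells are seeded and incubated overnight before loading with a no-wash Ca2+ dye and quencher. Agonist activity is taken from the 110 s fluorescence read following compound pin-transfer on an FDSS, before EC80 54-4 challenge.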
gsp antag – antagonizes gsp, the McCune-Albright syndrome mutation | Potency, µM (top dose mostly 76.9 µM), inactives show at the top dose activity change, negative = inhibition, actives largely listed as inhibitors | AID 624288 | gsp-mutant cells, cAMP HTRF, 30 min; control for the full effect not named in the record | actives 0.4% (n = 340,000); active = falling curve of any shape with a large fitted effect; inconclusive = falling curve, mostly with a smaller effect; inactive = flat or rising curve; cell line not stated here;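 also: intracellular cAMP measured with PDE inhibitor Ro 20-1724 present during compound exposure; potency is read from the fitted curve at half-maximal effect; % is scaled to controls: 0 for no effect and ±100 for the full control effect; nearly all actives have a fitted effect of over 65% in size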
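Cells in G418 medium, seeded 16-24 h, 37C; buffer exchange to DPBS + 1 mM CaCl2, 0.5 mM MgCl2, 0.05% BSA; cpds in DMSO + […] (300 uM stock), 30 min 37C; HTRF cAMP detection.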
ClpP mod – qHTS Assay for Activators of ClpP. actives 1.9% (n = 340,000). Potency, µM (top dose mostly 57.5 µM), inactives show at the top dose activity change, negative = active. purified B. subtilis ClpP, FRET peptide cleavage, 20 min; active = well fitted falling curve with a large enough effect; inconclusive = small, poorly fitted or top-dose-only effect; inactive = no such curve, though single readings can be large or run the other way; also: potency is read from the fitted curve at half-maximal effect; the source files actives as falling curves though it sought activators and does not explain the sign; nearly all actives have a fitted effect of over 65% in size; many hits overshoot -100%
Target sequence (P80244 whole entry, looked up): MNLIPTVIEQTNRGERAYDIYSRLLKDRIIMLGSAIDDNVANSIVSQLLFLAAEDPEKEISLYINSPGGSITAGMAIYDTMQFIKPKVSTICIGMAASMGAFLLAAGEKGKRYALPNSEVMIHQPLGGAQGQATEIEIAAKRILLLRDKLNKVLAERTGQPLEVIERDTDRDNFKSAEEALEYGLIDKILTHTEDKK
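FRET quenching reversal measured ClpP activation: 10 microg/mL B. subtilis ClpP at pH 8 with the FRET-FV decapeptide, read at 430 nm after 320 nm excitation. The 20-min minus 0-min signal was scaled between DMSO/no-enzyme wells and ADEP (5.8 microM final).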
TRPML1 blocker – blocks the human TRPML1 channel; activity change, negative = inhibition, % (concentration not given with the values); actives 0.02% (n = 390,000); TRPML1-inducible cells, Ca2+ dye fluorescence, FDSS; stronger effect = lower value; inhibition of EC80 agonist-evoked calcium signal; Q9GZU1; in the data active means activity change below about -50%; inconclusive means about -30% to -50%; inactive means above about -30%;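 also: stimulus is agonist 54-4 at its EC80 concentration; % is scaled to controls: 0 for no effect and ±100 for the full control effect; compound concentration not given in the record; the text of the record puts the active cut at -80%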
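Calcium fluorescence in TRPML1-DL cells induced overnight with Tet: a 110 s read after compound pin addition, then a 110 s antagonist read after challenge with 54-4 at 4 uM final (EC80).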
Menin-MLL FL inh – displaces fluorescein MLL peptide from human menin | Fluorescence polarization, fluorescein-MLL peptide displacement from menin | FP activity change, % at 61.4 µM | 290,000 tested, under 10 active; inconclusive = falling polarisation curve, or a change in total fluorescence; inactive = total fluorescence flat and polarisation flat or rising; no compound was filed as active; the % refers to the polarisation; negative = inhibition;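 also: % of control where 0% means no effect; inhibitors lower the polarisation; unlabelled MLL peptide was the positive control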
gsp agonist – activates gsp, the McCune-Albright syndrome mutation; Potency, µM (doses to about 76.9 µM), inactives show at the highest dose activation (cAMP increase), most hits filed as activators; gsp mutant cells, cAMP HTRF, 30 min; control for the full effect not named in the record; actives 0.13% (n = 340,000); AID 624287; active = well fitted activation curve with a large enough effect; inconclusive = small, poorly fitted or top-dose-only effect, or another doubt; inactive = no such curve, though single readings can be large or run the other way; cell line not stated here;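 also: phosphodiesterase inhibitor Ro 20-1724 added with compounds to block cAMP breakdown; potency is read from the fitted curve at half-maximal effect; nearly all actives have a fitted effect of over 60% in size; about a fifth of the inactives were tested at one dose only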
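Cells in DMEM/10% FBS with G418 were pretreated with compounds in DMSO plus […] (300 uM stock) for 30 min at 37C. cAMP was measured by HTRF (cAMP-d2 plus anti-cAMP antibody-K) after 30 min at room temperature.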
The depositor's hits bear a star; ? = inconclusive; . = no result given; & = joins results of further samples; [ ] = remark or other dose.

SMILES | TRPML1 ag | gsp antag | ClpP mod | TRPML1 blocker | Menin-MLL FL inh | gsp agonist
CC1CCC(NC(=O)C2CCN(c3c4c(nc5ncnn35)CCC4)CC2)CC1 (stereo not drawn) | -0.5 | -4% | . | -9 | . | 23%[15.4 µM]
COC(=O)c1ccc(/C=N/OCC(=O)NCc2ccc(F)cc2)cc1 | 0.1 | 6% | -0.2% | 10 | 1.5 | -1%[15.4 µM]
COc1cccc(/C=N/NC(=O)c2c(C)nc3ccc(Br)cn23)c1O | 13 | 8% | -1.8% | 32 | ? | 41%
Cc1oc2ncn(CC(C)C)c(=O)c2c1C(=O)N1CCN(c2ccccc2F)CC1 | -1.0 | . | -0.2% | -19 | . | .
CCOc1cccc(OCCCOc2ccccc2)c1 | 1.8 | 0% | 1.0% | -9 | -1.7 | 27%
O=C(C1CCCCC1)N1CCC2CC1c1cc(Cl)ccc12 (stereo not drawn) | -0.6 | -1% | 1.2% | 2 | . | .
Fc1ccc2c(c1)C1C=CCC1C(c1cc3c(cc1Br)OCO3)N2 (stereo not drawn) | -0.4 | 7% | -0.5% | -6 | -0.2 | 23%
CCn1c(C(=O)NCc2ccc(F)cc2)cc2oc3ccccc3c21 | -0.5 | . | 4.3% | 10 | . | .
CN1CC=C2C(C#N)=C(N)C(C#N)(C#N)C(c3ccsc3)C2C1 (stereo not drawn) | 5.9 | -4% | ? | 24 | ? | 20%
CCCC[C@@H]1CCCO[C@@](C(=O)NCC2CC2)(C(F)(F)F)C1 | 0.2 | . | . | -2 | -3.2 | .
CC(Sc1nnc(Cc2ccccc2)n1C)C(=O)NC1CC1 (stereo not drawn) | -0.6 | -3% | 0.4% | 5 | . | -19%
Cc1nnc2c(NCC(C)c3ccccc3)nc3ccccc3n12 (stereo not drawn) | 2.7 | 4% | 3.6% | 7 | -1.5 | 4%

Next part; it opens with the three that closed the last part.
SMILES | TRPML1 ag | gsp antag | ClpP mod | TRPML1 blocker | Menin-MLL FL inh | gsp agonist
CCCC[C@@H]1CCCO[C@@](C(=O)NCC2CC2)(C(F)(F)F)C1 | 0.2 | . | . | -2 | -3.2 | .
CC(Sc1nnc(Cc2ccccc2)n1C)C(=O)NC1CC1 (stereo not drawn) | -0.6 | -3% | 0.4% | 5 | . | -19%
Cc1nnc2c(NCC(C)c3ccccc3)nc3ccccc3n12 (stereo not drawn) | 2.7 | 4% | 3.6% | 7 | -1.5 | 4%
O=C(O)C1=C(C(=O)Nc2cc(C(F)(F)F)ccc2Cl)CCCC1 | 0.6 | 4% | . | -14 | 0.1 | -17%
O=C(NCCN1CCOCC1)c1ccc(Cl)c(S(=O)(=O)N2CCOCC2)c1 | 0.4 | 22% | -2.7% | 15 | . | 6%[15.4 µM]
COc1cc(OC)c2c(-c3ccccc3)cc(=O)oc2c1C(CC(=O)N1CCOCC1)c1ccc(N(C)C)cc1 (stereo not drawn) | 0.8&-0.3 | 2% | -2.9% | 50&33 | 2.3&7.3 | .
COCCCN(CCNC(=O)c1ccc(NC2=NC3CS(=O)(=O)CC3S2)cc1)Cc1ccco1 (stereo not drawn) | -0.1 | 7% | -0.4% | 0 | -0.8 | ?
Cc1ccn(CCC(=O)N2CCc3ccccc32)n1 | 0.7 | 3% | 0.7% | 3 | . | ?
CC1Cc2cc(/C(O)=C3/C(=O)C(=O)N(CCCn4ccnc4)C3c3ccc(F)cc3)ccc2O1 (stereo not drawn) | -0.4 | 26% | -0.9% | -7 | 0.8 | ?
O=C(NC(=S)Nc1ccccc1F)c1ccc(Br)o1 | 1.0 | -14% | 0.6% | 4 | 2.5 | 8%
Cc1ccc(NC(=O)Cn2cc(S(=O)(=O)N3CCC(C)CC3)c3ccccc3c2=O)c(Br)c1 | -0.5 | . | -11% | -10 | . | .
Cc1[nH]c2ccccc2c1/C=N/NC(=O)c1cc(C(C)(C)C)[nH]n1 | -0.2 | -12% | -1.9% | 6 | 3.7 | -1%[15.4 µM]
Cc1cc2[nH]c(=O)c(=O)[nH]c2cc1S(=O)(=O)N1CCN(c2cccc(Cl)c2)CC1 | 1.2&3.8 | -2% | ? | -1&10 | -1.4 | -21%
Cc1c(NC(=O)C(F)(F)F)ccc2nc3c(=O)n(C)c(=O)n(C)c3nc12 | 2.5 | . | -9.2% | -10 | . | .
CCC(C)Cn1c(C)nc2ccccc21 (stereo not drawn) | 0.7 | -6% | -1.2% | 2 | -4.2 | -18%
Cc1ccc(SCC(=O)c2ccc(CC(=O)O)s2)cc1 | -0.1 | -13% | . | -10 | 16 | 14%[15.4 µM]
O=C(NCCS(=O)(=O)NC1CCCC1)c1ccccc1 | -0.1 | 7% | . | 5 | . | 7%[15.4 µM]
COc1ccc(C(=O)N2CCN(C(=O)C3COc4ccccc4O3)CC2)cc1OC (stereo not drawn) | -0.7 | -12% | -1.4% | -10 | . | -42%[inhibitor]
O=C(O)c1ccc(N/N=C/C=C/c2ccccc2[N+](=O)[O-])cc1 | -0.2 | -18% | -1.7% | 3 | 3.9 | 5%[15.4 µM]
Cc1nnc(Sc2cc(C(=O)NCCCN(C)Cc3ccccc3)c3ccccc3n2)s1 | 1.7 | -18% | -9.5% | ? | -1.0 | -7%
Cc1ccc(C)c(N2CCN(C(=O)C(C)n3c(C)c4cnn(-c5ccccc5)c(=O)c4c3C)CC2)c1 (stereo not drawn) | -0.7 | . | -0.9% | 7 | . | .
O=C(O)c1cnnc2ccccc12 | -1.0 | 7% | . | -8 | . | 15%
C=CCC1Cc2c(Br)cccc2C(CC=C)N1 (stereo not drawn) | 1.7 | 6% | 0.8% | -8 | 1.1 | 6%
Cc1ccc(NC(=O)c2ccccc2N(C)S(=O)(=O)c2ccccc2)c(C)c1 | 1.0 | -1% | -10% | 1 | 5.9 | 17%
COc1ccccc1NC(=O)Nc1ccc(Br)cn1 | 0.9 | 10% | -0.5% | 47 | 0.8 | -4%
O=C(CN1CCc2ccccc2C1)NCC(=O)Nc1ccc(F)cc1 | 0.5 | 11% | . | 70 | 1.0 | -4%[15.4 µM]
COc1ccccc1OCc1csc(N)n1 | 1.7 | 9% | . | -9 | -4.1 | 6%
O=[N+]([O-])c1ccc(OCc2cccc(COc3ccc([N+](=O)[O-])cc3)n2)cc1 | 1.0 | -2% | -0.5% | -2 | 0.7 | ?
COc1ccc(Nc2nc3ccc(Cl)cc3n3nnnc23)cc1OC | 0.7 | . | -2.0% | -12 | . | .
CC1=C(C)CC(C(=O)NNC(=O)c2cccc(Cl)c2)C(C(=O)O)C1 (stereo not drawn) | 0.3 | 19% | 1.3% | 7 | 0.5 | -1%
Cc1nc(N[C@@H](Cc2c[nH]c3ccccc23)C(=O)O)c2oc3ccccc3c2n1 | 0.0 | -5% | -1.4% | -1 | 1.8 | -3%
Cc1ccc(-c2nnn(CC(=O)N(c3ccccc3F)C(C(=O)NCC3CCCO3)c3c[nH]c4ccccc34)n2)cc1 (stereo not drawn) | 0.8 | -13% | -2.2% | -1 | 3.0 | 3%
Cc1cc(C)nc(SCc2ccc(C(=O)N/N=C/c3ccccc3C(=O)O)cc2)n1 | -0.1 | . | . | -12 | -0.3 | 2%[15.4 µM]
Cc1ccnc(SCC(=O)c2ccc(Br)s2)n1 | 1.9 | 0% | . | 5 | 3.3 | -4%[15.4 µM]
COc1cc(NC(=O)c2ccnc(N)c2)cc(C(=O)Nc2cccc(C(F)(F)F)c2)c1 | -0.5 | -14% | -9.6% | -9 | 4.0 | -67%
Cc1nc(Cl)c(C(=O)NC(C)(C)C)c(C)c1Cl | -0.2 | 21% | 1.0% | 2 | -1.8 | -3%[15.4 µM]
COc1ccc2cnnc(SCC(=O)Nc3ccc(C(C)=O)cc3)c2c1OC | -0.8 | -8% | -2.6% | 14 | 5.2 | 16%
Cc1ccc(CSC2=Nc3ccccc3C3=NC(CC(=O)NC4CCCCC4)C(=O)N23)cc1 (stereo not drawn) | 0.1 | . | 4.2% | 22 | . | .
CC(C)CC(O)C1CCN(C(=O)CCc2nnc(-c3ccc4c(c3)OCO4)o2)CC1 (stereo not drawn) | 0.2 | 4% | ? | 12 | . | 12%

Three of the compounds above, tab-delimited:
Compound	TRPML1 ag	gsp antag	ClpP mod	TRPML1 blocker	Menin-MLL FL inh	gsp agonist
O=[N+]([O-])c1ccc(OCc2cccc(COc3ccc([N+](=O)[O-])cc3)n2)cc1	1.0	-2%	-0.5%	-2	0.7	?
COc1ccc(Nc2nc3ccc(Cl)cc3n3nnnc23)cc1OC	0.7	.	-2.0%	-12	.	.
CC1=C(C)CC(C(=O)NNC(=O)c2cccc(Cl)c2)C(C(=O)O)C1 (stereo not drawn)	0.3	19%	1.3%	7	0.5	-1%

Additional structures follow:
SMILES | TRPML1 ag | gsp antag | ClpP mod | TRPML1 blocker | Menin-MLL FL inh | gsp agonist
COc1cccc(-c2nnc3n2N=C(c2cccc(Br)c2)CS3)c1 | -0.8 | 0% | 0.9% | -13 | 4.6 | 8%
O=C(NCc1cccnc1)C1CC(=O)N(CCc2ccccc2)C1 (stereo not drawn) | 0.0 | 10% | 1.1% | 2 | 4.3 | -22%
CN(C(=O)C(=O)Nc1ccc2nc3n(c(=O)c2c1)CCCCC3)c1cccc(C(F)(F)F)c1 | 4.0 | . | -2.2% | -26 | . | .
O=C(N/N=C/c1ccc[nH]1)c1ccccc1[N+](=O)[O-] | -0.4 | 2% | 1.2% | -6 | -4.7 | 10%[15.4 µM]
O=[N+]([O-])c1ccc2oc(-c3ccccc3)nc2c1 | -0.4 | 14% | . | 2 | 1.0 | -1%[15.4 µM]
O=C(CSc1nccc(-c2cccs2)n1)Nc1cccc(Cl)c1Cl | -0.2 | -31% | -0.4% | 5 | 2.1 | 10%[15.4 µM]
O=C(NCc1cccs1)C1CCN(c2ccc(S(=O)(=O)N3CCOCC3)cc2Cl)CC1 | -0.1 | -8% | 1.3% | -9 | -1.8 | -29%
Cc1ccc(S(=O)(=O)Nc2ccc(C(=O)N3CCN(c4ccccc4O)CC3)cc2)cc1[N+](=O)[O-] | -0.2 | ? | -3.1% | 22 | . | 11%
O=S(=O)(c1cccc(F)c1)N1CCc2sccc2C1c1ccc(OC(F)(F)F)cc1 (stereo not drawn) | 2.3 | -14% | 0.2% | 53 | -0.4 | 5%[15.4 µM]
O=C(Cn1nc(-c2ccc(Cl)cc2)ccc1=O)NCc1ccc2c(c1)OCO2 | -0.4 | -1% | -4.2% | 15 | 2.0 | -7%
Cc1c(C(=O)N(C)C(C)c2ccncn2)oc2c(F)cccc12 (stereo not drawn) | -0.4 | -5% | -2.7% | 15 | . | ?
O=C(c1cnn(-c2cccc(F)c2)c1)c1ccccc1O | 0.1 | -24% | . | -4 | 2.4 | 3%
CC(C)(C)OC(=O)N1CCN(c2ccc([N+](=O)[O-])cc2)CC1 | -0.1 | 10% | 2.3% | 38 | 2.0 | 3%
